Assay outcomes (PubChem BioAssay)
Rce1 inhib: yeast Rce1p protease inhibitors, primary screen, biochemical, fluorescence, cell-free homogeneous | CAAX prenyl protease 2 (Saccharomyces cerevisiae (strain ATCC 204508 / S288c)), Q03530 | calls only | 0.27% of 290,000 active | yeast membranes, quenched prenylated peptide cleavage fluorescence;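 active = fall in fluorescence gain of 50% or more versus controls, with final raw signal at or below 3038400; inconclusive = same 50% fall but final raw signal above 3038400; inactive = fall in fluorescence gain under 50%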;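 also: plate controls were neutral control wells for no effect and wells lacking membranes for full effect; tested at 10 µM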
Target sequence (Q03530 whole entry, looked up): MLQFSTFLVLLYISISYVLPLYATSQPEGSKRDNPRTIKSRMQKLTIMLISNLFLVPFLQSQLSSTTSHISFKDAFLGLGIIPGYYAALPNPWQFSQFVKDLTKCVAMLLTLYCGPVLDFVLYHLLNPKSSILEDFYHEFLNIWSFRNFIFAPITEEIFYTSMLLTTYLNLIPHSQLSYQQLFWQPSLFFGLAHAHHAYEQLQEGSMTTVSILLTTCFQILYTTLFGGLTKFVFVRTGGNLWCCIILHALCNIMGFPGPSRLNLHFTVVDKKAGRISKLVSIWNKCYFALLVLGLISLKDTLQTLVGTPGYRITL
PABP polyA inh: PABP poly(A) RNA binding inhibitors, primary screen, biochemical, fluorescence polarization, uHTS; Polyadenylate-binding protein 1 (Homo sapiens), P11940; inhibition, % at 35 µM; 1% of 290,000 active;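 active = 50% or more with normal probe brightness, or confirmed in later tests; inconclusive = above 50% with abnormal brightness, or retests that disagree; inactive = below 50% or failed in later tests; about a fifth of its hits are not listed in these tables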;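 also: calls also rest on retests at 20 µM and on dose response follow-up; controls were probe without protein and protein plus probe with vehicle; some compounds called inactive have numbers as strong as hits; many hits fall short of the cut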
UUG fidelity: modulators of yeast start codon fidelity, primary screen, whole organism, S. cerevisiae, single point, plate reader; S. cerevisiae UUG-firefly luciferase reporter, luminescence/redox ratio; activity score, % at 18.7 µM; 0.13% of 350,000 active;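 active = replicate mean at a twofold rise or more, about +100% in these data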;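 also: firefly luciferase made from a UUG start codon reports start codon fidelity; reporter light over untreated wells divided by growth signal over untreated wells; some hits fall short of that in this replicate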
MT1-MMP act inh: blockers of MT1-MMP proenzyme processing, primary screen, HT1080 RFP-PRO-GFP cells, GFP/RFP fluorescence. Matrix metalloproteinase-14 (Homo sapiens), P50281. 0.061% of 360,000 active. GFP/RFP ratio fluorescence, overnight; percent of plate control window, DMSO zero. GFP/RFP ratio change, % at 20 µM. AID 651647, 2012;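 active = GFP/RFP ratio change of at least 30% with cell ATP level not reduced by more than half and red fluorescence within 50% of control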; also: strong numbers were not always called active
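system = RFP-PRO-GFP reporter HT1080 cells | dosing = 20 µM single dose, 1% DMSO | timing = overnight cell settling, then overnight compound exposure, 37 °C, 5% CO2 | read-out basis = GFP/RFP fluorescence ratio | controls = DMSO and RFP-L50D-GFP cell wells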
Env fusion inh: inhibitors of HIV-1 Env-driven cell-cell fusion, primary screen, HeLa-JRFL effector, CEM21 target cells, luciferase; 1.1% of 360,000 active; inhibition, % at 12.3 µM; AID 651610, 2012;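 active = mean replicate inhibition score of at least 50 and every replicate individually at or above 50; inconclusive = only one of the two criteria met; inactive = mean below 50 and not all replicates reaching 50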;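 also: 0% = plate neutral controls and 100% = maraviroc near 300 nM; one replicate is shown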
eIF4H inh: human eIF4H binding inhibitors, primary screen, translation initiation inhibitor project, biochemical, uHTS, fluorescence polarization; Eukaryotic translation initiation factor 4H (Homo sapiens), Q15056; 0.94% of 290,000 active; AID 2012, 2009; inhibition, % at 35 µM; eIF4H fluorescence polarization binding assay;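 active = 50% or more with normal probe brightness, or confirmed in later tests; inconclusive = above 50% with abnormal brightness, or retests that disagree; inactive = below 50% or failed in later tests; about a fifth of its hits are not listed in these tables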;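 also: calls also rest on retests at 20 µM and on dose response follow-up; 0% = protein and probe with vehicle and 100% = probe without protein; strong numbers were not always called active; many hits fall short of the cut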
CSC inhib: cancer stem cell viability inhibitors, primary screen, luminescence; inhibition, % at 7.5 µM; 1.1% of 300,000 active; cancer stem cell-like cells viability;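 active = mean at 75% or more and at least half the replicates too; inconclusive = mean and replicates disagree; tested in HMLE shEcad cells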;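 also: 0% = median of negative and 100% = median of positive control wells; the first replicate is given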
eIF4H inh retest: further read-out of eIF4H inh, marked with its call; inhibition, %; compound at 20 µM; confirmation average;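 mean of two retest wells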
PABP polyA inh retest: second read-out of PABP polyA inh, no call of its own (marks repeat the call); inhibition, %; compound at 20 µM; confirmation repeats;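 mean of two retest wells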
MT1-MMP act inh RFP: second read-out of MT1-MMP act inh, no call of its own (marks repeat the call); RFP signal change, %; measured here: RFP expression control read;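 0 = vehicle wells; hits needed this value within 50% of zero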
An asterisk follows results filed as active; i = inactive; ? = inconclusive; · = not tested or not shown. This is a subset; the hit share may differ from the screen's.

SMILES | Rce1 inhib | PABP polyA inh | UUG fidelity | MT1-MMP act inh | MT1-MMP act inh RFP | Env fusion inh | eIF4H inh | CSC inhib | others
COC(=O)c1cc(S(=O)(=O)NCc2ccc3c(c2)OCO3)c[nH]1 | i | 3 | -22 | 3 | 3 | -13 | -2 | -12
COc1ccc(-c2nc(-c3cccc(C)c3)no2)cc1OC | i | 1 | -17 | -1 | 1 | · | -8 | -5
C/C(=N\Nc1cccc(C(=O)O)c1)c1ccc(Cl)s1 | i | 1 | -15 | 1 | 6 | -42 | 61 | -10 | eIF4H inh retest=-3;PABP polyA inh retest=3
O=c1cc(N2CCCCC2)c2ccccc2o1 | · | 2 | -8 | -1 | -1 | -1 | 2 | 0
COc1cccc(OC)c1OCCCCn1cnc2ccccc2c1=O | i | 9 | · | 2 | 3 | -15 | 2 | -12
Cc1nc2c(c3c1[nH]c1ccccc13)C(O)CC(C)(C)C2 (stereo not drawn) | i | 2 | · | 2 | -9 | · | -5 | 1
O=C(Cn1c(=O)oc2ccccc21)Nc1ccccc1Cl | i | -3 | -4 | -1 | 2 | -2 | -8 | 0
CC1Oc2ccccc2N(Cc2cccnc2)C1=O (stereo not drawn) | i | 0 | -19 | 4 | 2 | 16 | 8 | -17
O=C(NCC1CC1)c1onc(CSc2ccc(F)c(F)c2)c1C(=O)NCC1CC1 | i | · | -6 | 0 | 1 | 44 | · | -8
O=C(COC(=O)c1ccccc1NC(=O)c1ccco1)Nc1ccc2c(c1)OCO2 | i | -6 | -20 | -1 | 3 | · | -3 | ·
COC(=O)[C@H](Cc1ccccc1)NC(=O)/C=C/[C@H]1O[C@@H](n2ccc(=O)[nH]c2=O)[C@H](O)[C@@H]1O | · | · | 12 | 2 | 3 | 2 | · | ·
CCCCc1c(C)nc2ccc(C)cc2c1SCCC(=O)O | · | 3 | · | 3 | 3 | 9 | -2 | -3
CCOc1cccc(/C=C2\NC(=S)N(c3ccccc3)C2=O)c1O | i | 5 | -10 | 2 | 11 | -29 | 5 | 13
Cc1ccc(C(=O)Nc2cccc(C(=O)O)c2)cc1 | i | -4 | · | · | · | 117* | 4 | 21
CCOC(=O)c1cccc(NC(=O)c2cncc(Br)c2)c1 | i | 3 | · | -4 | -1 | -5 | -3 | ·
COc1cc(C(=O)O)cc(OC)c1OCc1cc(C(=O)O)oc1C | i | 22 | -11 | 0 | 5 | · | 21 | -5
Cc1cc(C)nc(-n2nc(C)cc2NC(=O)CN2CCCC(C)C2)n1 (stereo not drawn) | i | -6 | -26 | 2 | -4 | · | 5 | ·
c1ccc(OCCSc2ncnc3nc[nH]c23)cc1 | i | · | -27 | 1 | 0 | · | · | 32
Cc1onc(-c2ccccc2Cl)c1C(=O)NCc1ccc(S(N)(=O)=O)cc1 | i | 6 | -26 | -1 | 3 | -3 | -2 | -14
CCCOn1c(-n2nc(C)cc2C)nc2ccccc2c1=O | i | -4 | 5 | 0 | 0 | -85 | -2 | ·
CC(C)[C@H](NC(=O)c1c(F)cccc1F)C(=O)N1CCN(c2ccc(F)cc2)CC1 | i | -5 | -6 | -2 | -4 | 1 | 14 | -5
Cc1cc(C(=O)Nc2cccc(NC(=O)c3ccco3)c2)ccc1[N+](=O)[O-] | i | 2 | -4 | 0 | -4 | -11 | -10 | -9
CCCOC(=O)C1C2C=CC(C3CC23)C1C(=O)OCC(=O)c1ccccc1 (stereo not drawn) | i | 9 | 8 | -3 | -4 | 62* | 10 | -1
CC1CCN(c2nc3ccc(C(=O)O)cc3s2)CC1 | i | 4 | -91 | -2 | 2 | · | -6 | -13
O=C(Nc1cccc(F)c1)C1CCCCC1 | · | · | -25 | 3 | 1 | 7 | · | 0
CCCn1c(=O)[nH]c(=O)c2c1nc(-c1ccc(C(F)(F)F)cc1)n2CCOC | i | -4 | -17 | 3 | 5 | 9 | -2 | -13
O=C(NCCO)c1ccc(Cl)c(Cl)c1 | i | 8 | -26 | -8 | -1 | · | 1 | -16
O=C(CCn1c(=O)oc2ccccc21)N1CCN(c2ccc(F)cc2)CC1 | i | 0 | -2 | -1 | 1 | 6 | 8 | -11
COc1ccc(C)cc1NC(=O)COC(=O)C1CC1 | i | -11 | -3 | 3 | 3 | 10 | -9 | ·
CCOC(=O)N1CCN(Cc2nnc(-c3ccccc3Cl)o2)CC1 | i | 8 | -13 | 4 | 2 | -13 | -11 | -8
CC(=O)N1CN(C2CCCC2)Cc2c1sc1c2CCCC1 | i | 5 | -12 | -9 | 3 | -69 | -9 | -14
COc1ccc(NC(=O)CCc2c(C)nn(-c3ccc(N4CCOCC4)nn3)c2C)cc1 | i | -11 | -9 | · | · | -12 | -3 | -5
COCC(=O)N(Cc1nc2sc(C)c(C)c2c(=O)[nH]1)C1CCCCC1 | i | -4 | -5 | 0 | 4 | -11 | -1 | -8
O=C(CSc1nc2sc3c(c2c(=O)n1-c1ccccc1)CCCC3)NCc1ccco1 | i | 13 | -26 | -3 | 1 | 66* | -3 | ·
Cc1cc(C)n(-c2nc3ccccc3nc2NCCc2ccccc2)n1 | i | 10 | -3 | 1 | -1 | -26 | 18 | 24
COc1cccc(/C=N/Nc2ncnc3c2ncn3Cc2ccccc2)c1O | i | 2 | · | 0 | -13 | 9 | 11 | -12
CCOc1ccc2nc(SCC)[nH]c2c1 | i | -1 | · | -4 | 3 | -21 | -4 | -7
CCC(CC)N1CCN(CC2CC=CCC2)CC1 (stereo not drawn) | i | ? | · | 0 | 4 | -37 | 12 | 31
CCCC(C(=O)OCCN(CC)CC)(c1ccccc1)c1ccccc1 | i | · | -11 | -2 | -2 | -24 | · | 29
NC(=O)/C(=C/c1cccnc1)NC(=O)c1ccccc1 | i | 1 | -16 | 0 | -4 | -14 | 0 | 3
COc1ccc(CCCc2nnc(SCC(=O)Nc3nc(C)cs3)n2C)cc1C | i | 1 | · | 0 | -4 | 17 | 9 | -9
CCOC(=O)c1ccc(Nc2ncnc3c2cnn3C)cc1 | i | 6 | -30 | 2 | 2 | -62 | 4 | -1
CC(C)(C)c1ccc(OCC(O)CN2CCN(c3ccccn3)CC2)cc1 (stereo not drawn) | i | 5 | -10 | 4 | 0 | 4 | -18 | 42
C=CCc1cc(/C=C2/NC(=O)NC2=O)cc(OCC)c1O | i | -1 | · | 6 | 5 | 19 | 4 | -1
NC(=O)NCc1cccc(Cl)c1 | i | -11 | -9 | -2 | -3 | · | ? | -15
CSCCC(NS(=O)(=O)c1ccc(Cl)cc1)C(=O)OCC(=O)NC1CC1 (stereo not drawn) | i | -5 | -6 | 1 | 4 | · | 4 | ·
CC(=O)c1cccc(NC(=S)N2CCN(S(=O)(=O)c3ccc(F)cc3)CC2)c1 | i | 12 | -14 | 3 | 1 | -15 | -2 | 2
Cc1ccc(OS(=O)(=O)c2ccccc2)c(/C=N/N=C2\NC(=O)C(C)S2)c1 (stereo not drawn) | · | 2 | -11 | -4 | -4 | · | -5 | 17
COc1ccc2nc(-c3ccccc3)nc(SC)c2c1 | · | · | -12 | -1 | -1 | 13 | · | ·
Cc1ccc(CN2CC(C(=O)N3CCN(S(=O)(=O)c4ccc(C)cc4C)CC3)CC2=O)cc1 (stereo not drawn) | · | · | -3 | 3 | -9 | 24 | · | ·
Cc1ccc(C(=O)N[C@H](C(=O)Nc2cccc(S(=O)(=O)N3CCOCC3)c2)C(C)C)cc1 | · | · | -5 | -38 | -37 | -123 | · | ·
Cc1nc2ccccc2n1CC(=O)N/N=C/c1cccs1 | i | -10 | -12 | 5 | -5 | 4 | 8 | ·
COc1ccc(NC(=S)Nc2ncccc2C)cc1OC | i | -2 | · | 0 | -1 | -31 | -4 | -15
Oc1ccc2nnc3c(Br)cnn3c2c1 | i | ? | -16 | -54 | -2 | -30 | ? | -7
COc1ccccc1N1CCN(C(=O)CSc2nnc(NC(=O)c3ccco3)s2)CC1 | i | 1 | 0 | 3 | 3 | -13 | 6 | 12
COCC(=O)NCCNc1nc2ccc(C)cc2cc1C | i | -5 | -18 | 1 | 0 | · | 4 | -12
CC(NCC(=O)NCC(=O)Nc1ccc(F)cc1)c1cccc(C(F)(F)F)c1 (stereo not drawn) | · | · | -11 | 2 | 3 | -11 | · | 1
N#C/C(=C\c1cccs1)c1nc2ccccc2[nH]1 | i | -4 | -10 | -3 | -3 | -43 | 16 | 8
CCc1ccccc1NC(=O)Cn1nnc(-c2cccnc2)n1 | i | -7 | -15 | 4 | 1 | -7 | -5 | -4
CCn1c(C)nc2cc(S(=O)(=O)Nc3ccc(C)cc3)ccc21 | i | 51* | -21 | -6 | -5 | 1 | 8 | -15
Additional entries
SMILES | Rce1 inhib | PABP polyA inh | UUG fidelity | MT1-MMP act inh | MT1-MMP act inh RFP | Env fusion inh | eIF4H inh | CSC inhib | others
CCCCn1c(N)c(N(CC(C)C)C(=O)c2ccc(-n3c(C)ccc3C)cc2)c(=O)[nH]c1=O | i | · | -10 | -4 | 3 | · | · | -6
O=S(=O)(c1ccc(-c2ccon2)s1)N1CCOCC1 | i | -11 | · | -2 | 4 | -16 | -5 | -11
COc1ccccc1-c1cc(C(=O)Nc2ccc(F)cc2F)no1 | i | -5 | -12 | 0 | 4 | -107 | -2 | 17
COc1ccc(-c2noc(CCC(N)=O)n2)cc1OC | i | -2 | -13 | 1 | 2 | -29 | -4 | -8
COc1ccc(S(=O)(=O)N2CCN(CCC(=O)Nc3ccc(F)cc3)CC2)cc1 | i | -5 | · | -4 | -13 | 14 | 6 | -1
CCCCN(Cc1ccccc1)c1ncnc2nc[nH]c12 | i | -18 | 9 | -6 | -10 | · | -1 | -5
CCOC(=O)N1CCC(=NNC(=O)c2ccc(O)cc2)CC1 | i | 8 | 1 | 6 | 6 | 12 | -12 | 2
Cc1ccc2c(c1)C1CN(C)CCC1N2Sc1ccccc1[N+](=O)[O-] (stereo not drawn) | i | 0 | · | -16 | -10 | 21 | 0 | 10
Cc1ccc(-c2nn(C)c(=O)c3ccccc23)cc1CN1CCCCC1 | i | -4 | · | 1 | 0 | 14 | -5 | -6
Cn1cc(S(=O)(=O)N2CCCC2)cc1C(=O)NCc1ccccc1 | i | 4 | -7 | 6 | 3 | -16 | -11 | ·
O=C(CSCc1ccc(C(=O)O)cc1)Nc1ccc2ccccc2c1 | i | -6 | · | 0 | 0 | -13 | -7 | -2
COc1cccc(-c2csc(N3CCN(C(=S)NCC(C)C)CC3)n2)c1 | · | -2 | -8 | 2 | -6 | -1 | -16 | -2

Part of the list above in order of formula weight, largest number first.
SMILES | Rce1 inhib | PABP polyA inh | UUG fidelity | MT1-MMP act inh | MT1-MMP act inh RFP | Env fusion inh | eIF4H inh | CSC inhib | others
COc1ccc(S(=O)(=O)N2CCN(CCC(=O)Nc3ccc(F)cc3)CC2)cc1 | i | -5 | · | -4 | -13 | 14 | 6 | -1
Cn1cc(S(=O)(=O)N2CCCC2)cc1C(=O)NCc1ccccc1 | i | 4 | -7 | 6 | 3 | -16 | -11 | ·
CCOC(=O)N1CCC(=NNC(=O)c2ccc(O)cc2)CC1 | i | 8 | 1 | 6 | 6 | 12 | -12 | 2
